T cruzi repl – T. cruzi replication inhibition; 1.4% of 300,000 active; AID 1885; inhibition, % (concentration not given with the values); T. cruzi beta-gal in NIH3T3, luminescence, 90 h;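 active means mean inhibition across valid replicates above about 55%, limit read from the data; inconclusive means mean below that limit but half or more replicates reach it; inactive means mean below it, under half of replicates reach it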;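 further: signal also drops with host cell toxicity which is not excluded here; 0% = plate median of DMSO wells and 100% = zero luminescence signal; higher percent means less beta-gal luminescence so fewer parasites; stock transfer was 50 nL into about 50 µL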
UCH37 inh – human UCH37 deubiquitinating enzyme inhibition | AID 588478 | purified proteasome/UCH37, Ub-AMC cleavage fluorescence | inhibition, % (concentration not given with the values) | 0.33% of 330,000 active;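 active means mean of two replicates above 20%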;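 further: 0% = compound-free wells with enzyme and 100% = wells lacking proteasome; stock transfer was 100 nL into about 20 µL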
Target sequence (Q9Y5K5 whole entry, looked up): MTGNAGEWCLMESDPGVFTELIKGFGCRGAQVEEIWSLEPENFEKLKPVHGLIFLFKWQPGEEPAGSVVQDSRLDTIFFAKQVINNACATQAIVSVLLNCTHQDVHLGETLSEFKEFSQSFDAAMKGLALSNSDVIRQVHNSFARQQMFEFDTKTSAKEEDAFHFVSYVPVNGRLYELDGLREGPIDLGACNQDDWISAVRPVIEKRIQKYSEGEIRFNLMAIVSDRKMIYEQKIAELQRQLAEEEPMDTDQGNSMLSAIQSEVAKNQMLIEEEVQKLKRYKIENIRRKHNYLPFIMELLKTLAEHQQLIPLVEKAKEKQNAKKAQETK
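Material: Human UCH37 enzyme supplied as purified proteasome complex | Schedule: 30 min preincubation with enzyme, 25 min cleavage at room temperature | Detection: AMC fluorescence 355/460 nm | Measure: % inhibition of Ub-AMC cleavage fluorescence | Controls: Wells without proteasome as full block, compound-free enzyme plus substrate as uninhibited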
Beta cell apopt – beta cell apoptosis inhibition; 0.8% of 300,000 active; protection from apoptosis, % (test concentration not listed); AID 435005; INS-1E cytokine-induced death, ATP luminescence, 48 h; percent of positive-control rescue, neutral wells zero;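 active means all replicates at 75% or more, or half of them and the mean; inconclusive means half reach 75% but not the mean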;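 further: 0% = cytokine-treated negative control wells and 100% = positive control rescue; higher means more ATP so stronger rescue from cytokine killing; wells of about 40 µL received 100 nL stock; the first replicate is given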
Bfl-1 A1 inh – inhibitors of the anti-apoptotic protein A1, read as caspase activation; MEF A1-2A-BIM cells, Caspase-Glo 3/7 luminescence, 3 h; percent of clofoctol response, vehicle zero; AID 2462; caspase activation, % (test concentration not listed); 0.066% of 330,000 active;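 active means over half of replicate activation scores above 10%, or exactly half above 10 with the replicate mean above 10; inconclusive means replicate mean below 10 yet half the replicates above 10; inactive means over half of replicates below 10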;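 further: wells of about 30 µL received 50 nL stock; many hits fall short of the cut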
Ecoli growth – E. coli growth inhibition | Escherichia coli growth, OD600, 23 h; active compounds read low | OD600 absorbance (concentration not given with the values) | 0.21% of 330,000 active | AID 1053175;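 active means OD600 absorbance below the run mean of sample wells minus 3.6 SD, in any replicate, cut at about 0.56 in these data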;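 further: stock transfer was 300 nL into about 60 µL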
AF4-AF9 inh – blocks AF4 peptide binding to human AF9; P42568; AlphaScreen, biotin-AF4 peptide binding to FLAG-AF9; inhibition, % at 10 µM; 0.47% of 350,000 active;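 active means every replicate reaching a set inhibition limit, whatever the replicate mean, cut at about 25% in these data; inconclusive means mean inhibition reaches that limit but some replicates miss it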;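 further: 0% = plate neutral control median and 100% = total signal loss; the record names both 10 and 1 µM as test concentration; the first replicate is given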
Target sequence (P42568 whole entry, looked up): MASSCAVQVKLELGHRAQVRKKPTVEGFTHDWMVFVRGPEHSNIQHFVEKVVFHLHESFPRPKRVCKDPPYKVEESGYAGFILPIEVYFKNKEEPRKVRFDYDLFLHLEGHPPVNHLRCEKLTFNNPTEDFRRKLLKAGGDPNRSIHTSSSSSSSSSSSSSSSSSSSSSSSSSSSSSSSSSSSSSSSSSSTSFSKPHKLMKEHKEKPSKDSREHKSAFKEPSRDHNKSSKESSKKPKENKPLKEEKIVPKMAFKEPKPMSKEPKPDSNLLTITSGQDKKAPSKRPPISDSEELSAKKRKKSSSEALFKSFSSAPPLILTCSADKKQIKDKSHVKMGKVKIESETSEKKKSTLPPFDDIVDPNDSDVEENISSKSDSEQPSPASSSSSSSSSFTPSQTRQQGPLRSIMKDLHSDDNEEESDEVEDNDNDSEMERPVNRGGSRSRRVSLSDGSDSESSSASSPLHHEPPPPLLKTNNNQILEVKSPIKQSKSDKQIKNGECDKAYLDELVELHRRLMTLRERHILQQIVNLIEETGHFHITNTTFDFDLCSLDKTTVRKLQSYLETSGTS
FGF22 binding – FGF22 (human) thermal shift binding; AID 651658; Q9HCT0; 1.5% of 340,000 active; recombinant FGF22 thermal shift, SYPRO orange fluorescence; percent of sucrose octasulfate shift, DMSO zero; calls only at 9.99 µM;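 active means melting point raised past a set limit in the mean and every replicate; inconclusive means no clear call; three in four hits are not shown here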
Target sequence (Q9HCT0 whole entry, looked up): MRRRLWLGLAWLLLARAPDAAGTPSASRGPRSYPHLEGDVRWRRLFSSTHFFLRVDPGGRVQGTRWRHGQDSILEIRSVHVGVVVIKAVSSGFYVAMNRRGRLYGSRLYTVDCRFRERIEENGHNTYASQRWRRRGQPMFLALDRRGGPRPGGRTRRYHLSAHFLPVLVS
rRNA inh HTS – selective bacterial rRNA inhibition in E. coli; E. coli WT GFP vs humanized-ribosome RFP mutants, fluorescence, 24 h; active compounds read low; DMSO median 0, no signal -100; GFP signal change (wild-type ribosome), % (test concentration not listed); 1.6% of 350,000 active;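 active means significant combined selectivity score with lowered wild-type GFP, culture density cut under 30%, mutant RFP and density less affected; inactive means any of these conditions unmet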; further: one replicate is shown; some compounds called inactive have numbers as strong as hits
rRNA inh HTS OD600 – recorded beside rRNA inh HTS, whose call it bears; OD600 change, %; measured here: OD600 growth;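 optical density of the mix in the first replicate; 0 = DMSO median and -100 = no signal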
rRNA inh HTS RFP – also measured in rRNA inh HTS; calls as there; RFP signal change, %; measured here: RFP humanized mutant strains;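 first replicate; 0 = DMSO median and -100 = no signal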
* = called active by the depositor; i = inactive; ? = inconclusive; . = not tested or not shown. The list is partial (hit frequency here may not be typical).

The opening four records as a preview:
SMILES	T cruzi repl	UCH37 inh	Beta cell apopt	Bfl-1 A1 inh	Ecoli growth	AF4-AF9 inh	FGF22 binding	rRNA inh HTS	rRNA inh HTS OD600	rRNA inh HTS RFP
O=C(c1cc2ccccc2cc1O)N1CCCC1	10	-6.9	-2	-0.3	0.67	0.9	i	4	10	-1.4
CCCNC(=O)CN(CCc1ccccc1)S(C)(=O)=O	-1	-0.4	-5	0.4	0.66	.	.	.	.	.
CCOc1cc(/C=C(\C#N)C(=O)Nc2cccc(C(=O)O)c2)cc(Br)c1OC(=O)c1ccc(OC)cc1	-18	4.0	-2	-0.2	0.67	2.2	i	-33*	-16*	2.7*
COc1cccc(NC(=O)CCNS(=O)(=O)c2cccc3nonc23)c1	2	2.8	-6	0.7	0.73	2.3	i	-17	-9	-2.5

The list itself, previewed entries included:
SMILES	T cruzi repl	UCH37 inh	Beta cell apopt	Bfl-1 A1 inh	Ecoli growth	AF4-AF9 inh	FGF22 binding	rRNA inh HTS	rRNA inh HTS OD600	rRNA inh HTS RFP
O=C(c1cc2ccccc2cc1O)N1CCCC1	10	-6.9	-2	-0.3	0.67	0.9	i	4	10	-1.4
CCCNC(=O)CN(CCc1ccccc1)S(C)(=O)=O	-1	-0.4	-5	0.4	0.66	.	.	.	.	.
CCOc1cc(/C=C(\C#N)C(=O)Nc2cccc(C(=O)O)c2)cc(Br)c1OC(=O)c1ccc(OC)cc1	-18	4.0	-2	-0.2	0.67	2.2	i	-33*	-16*	2.7*
COc1cccc(NC(=O)CCNS(=O)(=O)c2cccc3nonc23)c1	2	2.8	-6	0.7	0.73	2.3	i	-17	-9	-2.5
COCCn1c(Cc2ccccc2)nnc1SCC(=O)Nc1cc(C)on1	2	3.1	-8	-0.2	0.72	.	.	.	.	.
CC(=O)N1CCN(C(=O)CSc2cc(C)c(Br)cc2C)CC1	-2	2.0	-19	0.7	0.68	3.0	i	-2	-16	-2.1
COc1ccc(N2C(=S)NC3CS(=O)(=O)CC32)cc1 (centres undefined)	-12	2.2	-3	-1.0	0.71	-1.2	i	2	7	-1.3
NNC(=O)C1CC(O)CN1S(=O)(=O)c1ccc2ccccc2c1 (centres undefined)	.	-0.6	-1	1.4	0.69	-2.2	i	14	12	4.3
CCN(Cc1nc2cc(Cl)ccc2c(=O)[nH]1)C(=O)C1CC(=O)N(c2cccc3ccccc23)C1 (centres undefined)	.	1.4	1	1.1	0.73	-2.4	i	.	.	.
CC1CCc2ccc(F)cc2N1S(=O)(=O)c1cccs1 (centres undefined)	6	1.9	0	-0.3	0.69	.	.	-46	-66	-11
Cc1cc(C)n(CCNc2nc3nonc3nc2N2CCCCC2)n1	6	13	3	0.2	0.67	0.5	i	-5	0	-3.4
CCOc1ccc(-c2nnc(SCC(=O)NC(C)(C)C)nc2-c2ccc(OCC)c(OC)c2)cc1OC	17	6.2	9	0.5	0.69	7.3	i	-4	-10	-1.5
COc1ccc(NC(=O)CN(C)C(=O)CSc2ccc3c(c2)OCCO3)cc1	1	3.6	-3	0.5	0.71	-19	i	4	-6	3.2
Cc1cc(NC(=O)CCC(=O)N(Cc2ccco2)C(C(=O)NC2CCCC2)c2ccc(F)cc2)no1 (centres undefined)	3	3.8	-3	1.2	0.71	0.4	i	0	6	0.8
CCn1c(CNC(=O)Cc2ccc(OC)cc2)nnc1SCC(=O)Nc1nccs1	-1	1.7	-2	-0.4	0.61	.	.	2	5	-3.0
O=C(NCCSc1ccc(Br)cc1)c1ccccc1	-5	1.3	3	0.3	0.64	-2.7	.	-16	-23	-2.4
O=C(COc1ccc(C(=O)O)cc1)Nc1cccc(C(F)(F)F)c1	-2	3.2	.	0.9	0.73	-3.2	i	-3	-4	-0.7
O=C1OC2(O)C3C4C=CC(C4)C3C(=O)N2c2ccccc21 (centres undefined)	3	3.6	-1	0.1	0.69	?	i	8	-2	-2.8
CCCn1c(SCC(=O)Nc2cccc(C(=O)OCC)c2)nnc1-c1ccoc1C	2	0.4	1	-0.2	0.71	.	.	.	.	.
COc1cc(C(=O)OC(C)CN2CCCCC2)cc(OC)c1OC (centres undefined)	-10	1.3	2	-0.1	0.69	-13	i	16	8	1.3
CCOC(=O)c1ccc(-n2ncc(C(=O)OCC)c2N)cc1	-11	4.6	-2	1.1	0.69	.	.	.	.	.
O=C(c1csc(Nc2cccc3ccccc23)n1)N1CCCC1	4	-6.2	-12	0.4	0.69	-1.3	i	-32*	-10*	-5.8*
CN(CC(=O)Nc1cc(S(=O)(=O)N2CCCC2)ccc1Cl)Cc1cccs1	1	2.5	9	0.4	0.69	-23	i	-26	-26	-1.9
CCN(CC)S(=O)(=O)c1ccc(Cl)c(C(=O)OC)c1	13	2.8	-3	-0.3	0.7	0.6	i	-7	-21	-6.4
Cc1cc(C)c(S(=O)(=O)N(CC(=O)N2CCCC2)C2CCCCC2)c(C)c1	8	4.6	4	-0.5	0.68	.	.	.	.	.
CC(=O)c1ccc(NC(=O)CNC2CCCCC2)cc1	2	4.5	-4	-0.4	0.69	3.6	i	6	7	0.8
Cc1cccc(N2CCN(C(=O)c3ccccc3NC(=O)C3CCCCC3C(=O)O)CC2)c1 (centres undefined)	-1	.	0	-0.6	.	-9.7	i	.	.	.
O=C(O)C[C@H]1c2cc(F)ccc2S(=O)(=O)N1C1CCCCC1	-8	3.8	-4	-3.1	.	.	i	13	15	-0.1
COc1cc2c(cc1NC(=O)CN1CCN(S(=O)(=O)c3ccccc3F)CC1)oc1ccccc12	0	-6.1	3	0.8	0.75	.	.	.	.	.
c1ccc(-c2nc3cccnc3nc2-c2ccccc2)cc1	-2	2.7	.	0.7	0.69	0.4	i	-24*	-4.3*	-0.2*
Cn1nnnc1SCc1ccccc1F	-6	1.9	-16	1.0	0.66	.	.	.	.	.
CN(CC(=O)Nc1ccccc1F)Cc1cccs1	13	-0.5	-1	0.6	0.61	-2.2	i	0	-5	-0.6
Cn1nc(C(=O)Nc2cccc(S(=O)(=O)N3CCCC3)c2)c2ccccc2c1=O	.	.	-8	1.2	.	1.4	i	4	14	2.6
CNC(=O)c1cn2c3c(ccc(Cl)c3c1=O)OC(C)C2 (centres undefined)	.	i	.	.	0.66	0.1	i	5	-3	-2.3
COc1ccccc1N1CCN(C(=O)COc2cc(C)cc3oc(=O)cc(C)c23)CC1	13	-5.4	2	0.6	0.68	-1.7	i	-2	5	-1.9
COc1ccc(/C=C/C(=O)OCC(=O)NCCC2=CCCCC2)cc1S(=O)(=O)N1CCOCC1	11	5.7	-10	0.6	0.7	4.8	i	-21	-21	7.9
COc1ccc(Cl)cc1NC(=S)N(Cc1ccc(C(=O)O)cc1)Cc1ccc(OC)c(OC)c1	14	2.2	-4	0.9	0.69	-4.8	i	-15	-16	-2.6
CC(C)C(=O)NNC(=O)CN1CCN(c2nc(-c3ccccc3)cs2)CC1	-20	0.5	-2	-0.1	0.69	2.9	i	-16	-9	-7.6
Cc1ccccc1-n1c(SCC(=O)Nc2c(C)cccc2C)nc(O)cc1=O	0	4.8	-5	0.0	0.68	-4.5	i	4	11	0.5
COc1ccc(/C=N/n2cnn(Cc3ccccc3Cl)c2=S)cc1OC	-1	.	-9	0.0	.	6.0	i	-31	-29	-4.2
O=C(Nc1ccccc1)C(Cc1ccccc1)NC(=O)C12CC3CC(CC(C3)C1)C2 (centres undefined)	10	0.5	-1	-0.1	0.71	5.1	i	9	8	0.6
N#C/C(C(=O)N1CCOCC1)=C1/SC(Cc2ccc(F)cc2)C(=O)N1c1ccccc1 (centres undefined)	-2	5.1	3	0.5	0.72	.	.	.	.	.
Cc1csc(SC(C)C(=O)NCC(=O)Nc2ccc(F)c(F)c2F)n1 (centres undefined)	-12	3.4	1	0.8	0.73	-1.5	i	25	21	2.2
CCN(c1ccccc1)S(=O)(=O)c1ccc(OCc2c(C)noc2C)cc1	7	1.7	9	-0.6	0.74	.	.	.	.	.
Cc1ccc(OCC(O)CNC(C)c2ccccc2)cc1C (centres undefined)	9	0.6	.	1.3	0.67	0.9	i	-3	-13	-1.2
Cc1cccc(NC(=O)NNC(=O)CCc2ccccc2)c1	5	1.6	-8	-1.5	0.75	-0.7	i	2	3	0.1
COc1ccccc1/C=C/CN1CCCC(CO)(Cc2cccc(Cl)c2)C1 (centres undefined)	32	-0.2	6	0.3	0.67	6.5	i	-45	-41	-6.4
Cc1ccc2sc(N(CCN(C)C)C(=O)c3ccc(S(=O)(=O)N4CC(C)OC(C)C4)cc3)nc2c1C (centres undefined)	31	1.3	-4	0.3	0.68	-1.9	i	10	7	-0.7
Cc1ccc(-c2c(C)n([O-])c3c([n+]2=O)CCCCC3)o1	0	7.5	0	-0.2	0.69	.	.	.	.	.
COc1ccc(C(=O)NCC(=O)OCC(=O)c2cc(OC)c(OC)c(OC)c2)cc1OC	-13	5.0	1	-0.5	0.71	0.2	.	15	7	-2.1
Next section
SMILES	T cruzi repl	UCH37 inh	Beta cell apopt	Bfl-1 A1 inh	Ecoli growth	AF4-AF9 inh	FGF22 binding	rRNA inh HTS	rRNA inh HTS OD600	rRNA inh HTS RFP
CCC(C)NC(=O)C1CCN(S(=O)(=O)N2CCCC2)CC1 (centres undefined)	-2	-0.2	-10	-0.4	0.7	.	.	11	17	-1.2
Cc1ccc(S(=O)(=O)N2CCOCC2)cc1NC(=O)CN1CCN(c2ccc(O)cc2)CC1	-6	1.9	2	1.1	0.71	4.0	i	28	8	2.5
CC(=O)NC(=S)Nc1cc(C(=O)O)ccc1Cl	-4	2.9	1	-0.3	0.66	1.9	.	8	10	-1.6
COc1ccccc1C(C)NCC(=O)Nc1c(F)cccc1F (centres undefined)	-2	3.2	-1	0.7	0.66	-0.8	i	12	-1	-0.8
Cc1cc(C)n(CC(O)COc2ccc(C(C)C)c(C)c2)n1 (centres undefined)	2	3.4	.	0.9	0.65	3.8	i	-18	-33	-2.1
CCOC(=O)c1c(CC(C)C)csc1NC=O	2	-4.9	-12	-0.5	0.74	.	.	.	.	.
Cc1nnc2ccc(N3CCCCC3)nn12	-4	3.2	0	0.8	0.66	-1.3	i	6	-1	0.0
COc1ccc(NC(=O)CN(C)C(=O)/C=C/c2cn(-c3ccccc3)nc2-c2ccc(F)cc2)cc1	17	1.1	-1	-0.2	0.72	-2.0	i	0	-1	-1.2
O=Cc1ccccc1-n1cncn1	-14	1.1	-4	0.0	0.7	0.9	i	17	0	-0.6
O=C(COc1ncnc2ccc(Br)cc12)NC1CCCC1	.	1.6	2	0.6	0.66	-2.8	i	.	.	.
COc1ccc(CSCCN)cc1Cl	2	0.3	3	0.0	0.68	.	.	.	.	.
COc1ccc(/C(N)=N/OC(=O)CCC2CCCC2)cc1OC	-4	1.3	-3	-0.4	0.7	-3.3	i	1	-21	3.4
COc1cccc(CN(C)C(=O)c2ccc(NC(=O)CC3SC(N4CCCCC4)=NC3=O)cc2)c1OC (centres undefined)	.	-1.0	.	.	0.7	-1.7	i	-3	-1	2.9
N#CCSCC(=O)Nc1ccccc1	.	4.5	-7	-0.2	0.79	.	.	.	.	.

Source: PubChem
